# Six1-Eya2 inh: Six1/Eya2 interaction inhibition | activity change, % (no concentration beside the values) | 0.56% of 360,000 active | AID 651725 | AlphaScreen GST-Six1/His-Eya2 binding, biochemical; stronger effect = lower value; control for the full effect not named in the record | Q15475+O00167; in the data active = activity change below about -65%; inconclusive = about -30% to -65%; inactive = above about -30%; further: on the % scale 0 is the no-effect control and ±100 the full control effect; compound concentration not given in the record
#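 Six1/Eya2 binding was read as AlphaScreen signal after compounds were pinned into GST-Six1 plus His-tagged Eya2 (5X stock 250/500 nM) in pH 8.0 Tris/NaCl/TCEP buffer, beads added, then incubated 1 h, 37 C, dark.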
# CtBP-E1A inh: inhibitors of CtBP/E1A interaction | AlphaScreen GST-E1A/His-CtBP binding, 1536-well; stronger effect = lower value; control for the full effect not named in the record | activity change, % (concentration not given with the values) | 0.49% of 340,000 active | AID 651724; in the data active means activity change below about -65%; inconclusive means about -30% to -65%; inactive means above about -30%; further: on the % scale 0 is the no-effect control and ±100 the full control effect
#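 Protein mix (5X: 125 nM each GST-E1A, His-CtBP) was incubated with pinned compound 2 h at 37 deg C in dark, in 50 mM Tris pH 8.0 buffer with 300 mM NaCl. Glutathione donor and nickel acceptor beads followed; AlphaScreen signal read after 1 h.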
# TRPV1 potentiator: potentiators of human vanilloid receptor 1 (TRPV1); Q8NER1; TRPV1-expressing cells, Fluo-8 calcium influx, capsaicin EC20 potentiation; host cell line not named in the record; control for the full effect not named in the record; potentiation, % at 8.33 µM; 0.02% of 320,000 active; AID 540277; active means potentiation above 80%; inconclusive means 30% to 80%; inactive means below 30%; further: 0% is about no effect
# Target sequence (Q8NER1 whole entry, looked up): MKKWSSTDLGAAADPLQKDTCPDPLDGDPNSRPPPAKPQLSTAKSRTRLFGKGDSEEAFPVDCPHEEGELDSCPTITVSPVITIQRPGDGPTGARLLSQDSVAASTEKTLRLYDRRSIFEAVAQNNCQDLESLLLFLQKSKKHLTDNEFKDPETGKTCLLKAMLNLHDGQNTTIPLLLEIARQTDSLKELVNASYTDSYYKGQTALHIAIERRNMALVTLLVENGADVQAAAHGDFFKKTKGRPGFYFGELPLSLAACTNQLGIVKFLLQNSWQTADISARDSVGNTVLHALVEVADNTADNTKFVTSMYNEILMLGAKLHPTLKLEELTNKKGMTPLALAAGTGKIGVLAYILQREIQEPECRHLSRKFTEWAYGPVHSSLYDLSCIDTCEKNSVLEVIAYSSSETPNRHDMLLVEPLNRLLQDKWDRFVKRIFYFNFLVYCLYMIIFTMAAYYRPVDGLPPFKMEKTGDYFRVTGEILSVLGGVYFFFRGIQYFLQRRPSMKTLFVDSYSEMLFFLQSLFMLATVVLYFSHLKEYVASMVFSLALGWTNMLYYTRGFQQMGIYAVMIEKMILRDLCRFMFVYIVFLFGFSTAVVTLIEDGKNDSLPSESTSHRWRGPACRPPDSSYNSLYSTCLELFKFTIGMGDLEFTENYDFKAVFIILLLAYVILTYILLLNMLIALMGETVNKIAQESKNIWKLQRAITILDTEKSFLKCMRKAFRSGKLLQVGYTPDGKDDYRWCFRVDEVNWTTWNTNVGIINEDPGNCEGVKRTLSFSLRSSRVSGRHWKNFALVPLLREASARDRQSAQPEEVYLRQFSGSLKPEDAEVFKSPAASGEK
#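 Cells expressing TRPV1 were dye-loaded with Fluo-8 and read kinetically: 10 s baseline, 3 min after compound (agonist portion), then 2 min after EC20 capsaicin (allosteric enhancer portion). Calcium-bound dye fluorescence at 480/520 nm.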
# PINK1 modulator: modulators of PINK1 expression | PINK1 immunofluorescence, high-content cytometry, 24 h | Potency, µM (highest dose often 76.6 µM), for the others: at the top dose activation (PINK1 increase), most hits filed as activators | 0.2% of 410,000 active; active = well fitted activation curve with a large enough effect; inconclusive = small, poorly fitted or top-dose-only effect; inactive = flat fitted curve, though single readings scatter; cell line not stated here;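 further: potency means the concentration at half of the fitted maximal effect; % of control where 0% means no effect; nearly all actives have a fitted effect of over 65% in size; a mitochondrial uncoupler was the plate control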
#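 Cells are seeded, rested 12 hours, then given compound at five concentrations or DMSO for 24 hours. After fixation, blocking and antibody staining, PINK1 amount and mitochondrial localization are scored; CCCP serves as control.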
# Sfp inh: inhibitors of Bacillus subtilis Sfp phosphopantetheinyl transferase; Q9F4F7; Biochemical Sfp PPTase activity, qHTS; Potency, µM, inactives show max response, negative = inhibition, actives largely listed as inhibitors; 3.5% of 310,000 active; AID 1490; active means well fitted inhibition curve with a large enough effect; inconclusive means small, poorly fitted or top-dose-only effect, or another doubt; inactive means no such curve, though single readings can be large or run the other way;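 further: the enzyme is Sfp with the accession as filed and its product quenches rhodamine fluorescence; potency means the concentration at half of the fitted maximal effect; 0% = enzyme reaction without inhibitor and -100% = no enzyme wells; top concentration of the series not given in the record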
#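 Step 1, compound plus 15 nM Sfp-PPTase, 15 min, room temperature. Step 2, add rhodamine-CoA (5 uM) and BHQ-2-YbbR (12.5 uM). Step 3, read 525/598 nm fluorescence at 0 and 30 min.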
# D2 ag: activates the human D2 dopamine receptor. 0.084% of 360,000 active. DiscoveRx PathHunter D2 beta-arrestin, luminescence, 90 min; 100% = 57 uM dopamine signal. activation, % (concentration not given with the values). AID 624465; in the data active = activation above about 40%; inconclusive = about 15% to 40%; inactive = below about 15%; further: compound concentration not given in the record; the text of the record calls up to 30% inactive
#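 DiscoveRx PathHunter D2 beta-arrestin cells (2,100/well) attached overnight, then compound-stimulated 90 min at 37 C in HBSS/10 mM HEPES/0.1% Tween-20 buffer; beta-galactosidase complementation read by luminescence after 1 h at ambient temperature. Dopamine 57 uM final (EC100) as control.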
# D2 potentiator: potentiates the human D2 dopamine receptor allosterically. DiscoveRx D2 beta-arrestin cells, luminescence, 90 min; 100% = 57 uM dopamine signal. 0.23% of 360,000 active. potentiation, % (concentration not given with the values); active = potentiation of 50% or more; inconclusive = 30% to 50%; inactive = 30% or less;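 further: compound concentration not given in the record; tested on top of an EC20 dose of dopamine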
#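 D2 cells co-treated with compound plus 50 nM dopamine (EC20) for 90 min at 37 deg C to detect potentiation. Beta-arrestin recruitment was read as enzyme-fragment luminescence after 1 h at ambient temperature. Full response was set by 57 uM dopamine.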
# Starred values were filed as active, the others as inactive; ? = inconclusive; · = not tested or not shown; & = joins results of further samples; [ ] = remark or other dose. Compounds as they come; 3.7% or so of the library scored in one or more.
# Each structure is followed by: Six1-Eya2 inh	CtBP-E1A inh	TRPV1 potentiator	PINK1 modulator	Sfp inh	D2 ag	D2 potentiator
Cc1cccc(NC2=C(NCCO)C(=O)c3ccccc3C2=O)c1
  -67*	-24	16	-1.7%	-12%	4.7	7
O=C(CSc1nc(Nc2ccccc2)nc(N2CCOCC2)n1)Nc1cc(Cl)ccc1O
  ?	?	7	9.6%	24%	?	1
N#Cc1cccc(C(c2nnnn2Cc2ccccc2)N2CCCC2)c1 (stereo unspecified)
  2	-2	-4	·	7%	-0.8	-8
O=C(CSc1ccc(-c2ccccc2)nn1)N1CCCc2ccccc21
  -4	-6	-22	-1.2%	-6%	-2.5	-21
COc1cccc(N2CCN(S(=O)(=O)c3ccc4ccccc4c3)CC2)c1
  -14	-7	18	-2.0%	·	2.7	20
CCCCN(C)CCCNC(=O)Cn1cc2c(n1)-c1c(oc(C(=O)N3CCCC3)c1C)CC2
  -4	4	·	0.1%	·	-1.2	-5
CCN1C(=O)N(C)[C@@H](c2ccccc2)C(C(=O)OC)=C1C
  5	8	6	2.8%	3%&14%	1.6	4
Cc1cccc(C=Nc2ccc3c4c(cccc24)CC3)c1O
  -12	7	21	16%	-24%	-3.3	-19
O=[N+]([O-])c1ccc(N2CCOCC2)c([N+](=O)[O-])c1
  1	-5	·	0.2%	·	-0.1	5
O=C(Nc1ccc(Cl)cc1)c1csc(-c2ccncc2)n1
  ?	-12	-10	1.7%	17%	-2.3	-6
CC(NS(=O)(=O)c1ccc2c(c1)oc(=O)n2C)c1ccccc1 (stereo unspecified)
  5	7	0	4.1%	14%	-0.3	-6
CN(C)CCCNC(=O)c1cc(C(=O)C2CCCCC2)c[nH]1
  12	-4	-1	-0.8%	23%	-7.2	-16
COc1ccc(Cn2c(SCc3cc(C)ccc3C)nc3cc(OC)c(OC)cc3c2=N)cc1
  -17	-17	7	·	3.2µM*	0.3	-21
CCNc1nc(NCC)nc(N/N=C/c2cc(OC)c(OC)c(OC)c2)n1
  0	5	8	6.1%	10%	5.6	4
CCC(=O)NCCc1nc2cc(NC(=O)COc3ccccc3)ccc2n1C
  2	-1	6	-1.3%	8%	-2.2	4
Cc1cc(CNC(=O)COC(=O)c2ccc(Cl)c(N)c2)cc(C)c1O
  8	5	9	2.4%	·	-4.9	-63
CCOc1ccc(CNC(=O)CCCOc2cc(=O)n(C)c3ccccc23)cc1
  -2	-4	2	1.2%	20%	0.6	-5
CCN(CC)C(=O)Oc1c(Cl)cc(Cl)c2cccnc12
  -4	-2	-2	1.9%	8%	-1.0	-6
CCN(CC)CCOc1ccc2c(c1)C(=NO)c1cc(OCCN(CC)CC)ccc1-2
  -10	2	-23	·	4%	-4.3	-30
CCN1C=C(Cc2cccs2)C2=C(C1)C(c1cccs1)C(C#N)=C(N)O2 (stereo unspecified)
  -22	-15	14	0.2%	-7%	-0.8	-18
S=c1sc(SCCOc2ccccc2)nn1-c1ccccc1
  33	29	0	-1.6%	20%	1.6	0
COc1ccc(NC(=O)c2cc(C)no2)cc1Cl
  3	-2	-14	6.4%	2%	-3.1	-7
O=C(O)C1OC2OC3(CCCCC3)OC2C2OC3(CCCCC3)OC12 (stereo unspecified)
  1	0	17	-0.9%	5%	-4.1	0
Cc1cccc(NC(=O)c2nc[nH]c2C(=O)N2CCN(c3ccccc3)CC2)c1
  -2	0	·	1.7%	·	-1.4	-26
CN(C)Cc1ncccc1Oc1nc2cc(-c3cccc(Cl)c3)sc2c(=O)n1C
  -14	-8	·	3.2%	·	-2.4	-4
CCC1=C(OC(=O)N(CC)CC)N2C(=O)OC(=NCC(=O)OC)[C@]2(C)[C@H]2C1=CC[C@H]1C(=O)N(CC(=O)OC)C(=O)[C@H]12
  3	11	-23	0.5%	22%&5%	-3.0	-7
COC(CNC(=O)c1cc(Sc2nnc(C)s2)nc2ccccc12)OC
  -5	3	-2	-1.4%	4%	-2.9	-24
CCCCNS(=O)(=O)c1ccc(Br)cc1N1CCC[C@H]1CO
  2	7	·	0.9%	·	-0.8	1
CCN(CC)S(=O)(=O)c1ccc(S(=O)(=O)N2CCCC2C(=O)O)cc1 (stereo unspecified)
  2	6	1	?	18%	1.8	-9
Cc1ccc(N2CCN(c3ccc(C)cc3)C(CC(=O)O)C2=O)cc1 (stereo unspecified)
  1	-3	-6	9.0%[38.3 µM]	9%	-1.4	1

# Each structure is followed by: Six1-Eya2 inh	CtBP-E1A inh	TRPV1 potentiator	PINK1 modulator	Sfp inh	D2 ag	D2 potentiator
CCC(=O)Nc1sc(C(=O)OC)c(C)c1C(=O)OC
  -1	29	2	-4.3%[38.3 µM]	-30%	-0.7	-17
Fc1cc(F)c2nc(N3CCOCC3)sc2c1
  2	18	-1	-1.0%	6%	3.9	-3
CCOc1ccc(C(=O)NCC(=O)OCC(=O)N2CCC(C)CC2)cc1
  6	-4	-4	-0.2%	16%	-0.6	-12
Cc1ccc(S(=O)(=O)N2CCN(C(=O)c3ccccc3)C2)cc1[N+](=O)[O-]
  -2	·	?	1.2%	1%	-4.3	-4
C=C1C(=O)O[C@H]2C[C@H]1[C@@H](OC(C)=O)C/C(C)=C/CC/C(C)=C\CC[C@]2(C)O
  0	7	·	-0.3%	·	-2.0	·
c1ccc(Cc2nnc(-c3ccccc3)o2)cc1
  6	8	-5	-3.4%	-15%	5.2	26
CC(C)Oc1ccc(Cc2c(O)nc(NCCCN(C)C)[nH]c2=O)cc1
  1	4	4	-0.5%	9%	-1.1	18
O=C(OCc1ccc(Br)cc1)c1cnc(Cl)c(Cl)c1
  38	27	13	0.2%	-11%	6.3	6
CCCCCCCC(=O)Nc1ccc(S(=O)(=O)Nc2nccs2)cc1
  -8	-5	9	3.0%	33%	-4.5	-14
O=C(Nc1ccccc1)c1ccc(-c2ccc(F)cc2)s1
  4	4	17	3.3%	0%	-1.3	2
Cc1cnc(C(=O)OCC(=O)Nc2ccccc2[N+](=O)[O-])cn1
  3	4	·	-0.7%	·	9.5	2
Cn1c(SCC(=O)NCc2cccs2)nnc1-c1ccc(O)cc1
  0	3	8	2.7%	11%	-2.5	-3
COc1cc(/C=N/NC(=O)c2cccc([N+](=O)[O-])c2)ccc1OC(=O)c1ccco1
  -9	·	-3	1.5%	9%	3.5	-3
Cc1cccc(C(=O)N2CCN(c3ccc(C(F)(F)F)cn3)CC2)c1C
  5	9	2	6.0%	10%	4.4	-3
CN(Cc1ccccc1)C(=O)N1CCOCC1
  8	3	·	0.3%	9%	-5.0	-3
CCOC(=O)c1ccc(NC(=O)CCc2nc(-c3ccccc3Cl)no2)cc1
  4	1	-6	4.9%	11%	3.0	-8
Nc1nc(F)nc2c1ncn2[C@@H]1O[C@H](CO)[C@@H](O)[C@H]1O
  -1	5	·	-1.2%	-1%	-2.8	11
CCCc1cc(=O)n2c([nH]c3ccccc32)c1C#N
  -1	5	-4	4.0%[38.3 µM]	12%	0.5	-5
CCCCOc1ccc(/C=N/Nc2cc(N3CCOCC3)nc(C)n2)cc1
  -4	·	2	14%	-18%	-3.2	-15
Cc1ccc(CSc2nnc(-c3ccc(NS(=O)(=O)c4ccccc4)cc3)o2)cc1
  -6	-4	0	8.3%	6%	0.9	-3
O=C(NC1CCN(Cc2ccccc2)CC1)c1ccc2c(c1)[nH]c(=O)n2Cc1ccc(F)cc1
  1	24	-2	-1.7%	15%	-1.6	-23
CC(=O)N[C@H]1C[C@@H]1c1ccccc1
  5	4	-1	2.7%	14%	4.2	-13
CCOC(=O)Nc1csnn1
  2	9	-10	0.5%	16%	-5.2	-3
O=C(NNC(=O)C1CCN(c2ncccn2)CC1)c1ccncc1
  5	·	7	-1.2%	5%	1.2	-8
COc1ccc(-c2nc(C#N)c(N3CCOCC3)o2)cc1OC
  -11	-10	4	-2.4%	2%	-3.4	-3
O=C(COc1cccc2cccnc12)N/N=C/c1cccn1-c1ccc(F)cc1
  -26	-18	12	-2.8%	-24%	3.0	1
Cc1nn(-c2ccccc2)c(C)c1CCC(=O)O
  6	8	0	5.2%[38.3 µM]	4%	-0.6	-6
COc1ccc(N2CCN(CCCNC(=O)Cn3c(=O)c4cccn4c4cccnc43)CC2)cc1
  -15	·	27	0.1%	13%	1.2	-10
COC(=O)CN(c1cc(Cl)ccc1OC)S(=O)(=O)c1ccc(C)cc1
  7	-1	-6	5.1%	4%	12	0
O=[N+]([O-])c1ccc(C(O)CNC(=S)Nc2ccccc2)cc1 (stereo unspecified)
  -1	8	-23	1.0%	7%	-3.1	-7

# Each structure is followed by: Six1-Eya2 inh	CtBP-E1A inh	TRPV1 potentiator	PINK1 modulator	Sfp inh	D2 ag	D2 potentiator
Cc1ccc(NC(=O)CCSCCC(=O)Nc2ccc(C)c(C)c2)cc1C
  -4	-4	21	-2.6%	5%	-3.3	-24
COc1ccc(N2CCCC2)c(NC(=O)COc2ccccc2Cl)c1
  -16	-12	0	2.3%	-15%	-1.1	-6
Cc1sc2nc(C)n(/N=C/c3ccccc3O)c(=O)c2c1C
  -2	-1	-5	15%[38.3 µM]	16%	-1.2	-7
CN(C)CC(O)COC(c1ccccc1)c1ccccc1 (stereo unspecified)
  6	-4	28	-1.8%	24%	-1.4	-8
Cn1c(SCC(=O)NC2CCCCC2)nc2c(c1=O)SCC2
  1	2	·	1.6%	·	1.2	-6
CC1CCC(C(=O)NC(C(=O)NCCc2ccc(S(N)(=O)=O)cc2)C(C)C)CC1 (stereo unspecified)
  10	2	23	-0.4%	4%	3.7	2
COc1ccc(N2CC(=O)N(c3ccccc3)C2=S)cc1
  0	-16	?	1.3%	8%	0.7	5
CC(=O)Nc1sc(NC(=O)c2ccccc2)nc1-c1cccs1
  -1	7	3	16%[38.3 µM]	0%	3.6	-1
O=C(Nc1ccc(S(=O)(=O)N2CCOCC2)cc1)C1CCN(S(=O)(=O)c2ccc(Cl)cc2)CC1
  5	6	·	0.1%	·	4.1	0
CCCc1cc(=O)[nH]c(SC(C)C(=O)Nc2ccc3c(c2)OCCO3)n1 (stereo unspecified)
  2	0	?	0.2%	·	-5.7	-2

# Screening data: PubChem, National Center for Advancing Translational Sciences (NCATS)
